High-throughput results (PubChem BioAssay)
StopGo RLuc: FMDV 2A StopGo reporter, Renilla signal. HEK cells with a luciferase reporter of 2A StopGo recoding. Potency, µM (top dose mostly 57.5 µM), without a hit: at the highest dose signal change, negative = less light. 120,000 tested, 0.32% active. AID 1745857; active means well fitted falling curve with a large enough effect; inconclusive means small, poorly fitted or top-dose-only effect; inactive means no such curve, though single readings can be large or run the other way; further: nearly all actives have a fitted effect of over 55% in size; overnight with compound
2A firefly: FMDV 2A StopGo reporter, firefly signal | Potency, µM (titrated, usually from 57.5 µM), for the others: at the highest dose signal change, negative = less light | 120,000 tested, 0.23% active | HEK cells with a luciferase reporter of 2A StopGo recoding; active = well fitted falling curve with a large enough effect; inconclusive = small, poorly fitted or top-dose-only effect; inactive = no such curve, though single readings can be large or run the other way; further: nearly all actives have a fitted effect of over 60% in size; overnight with compound
* marks the source's active call; other numbers are inactive results; ? = inconclusive; [ ] = dose if it differs, or a comment. On the % scale 0 is the no-effect control and ±100 the full control effect; potency means the concentration at half of the fitted maximal effect.

molecule	2A firefly	StopGo RLuc
O=C(c1cn(Cc2ccccc2)c2ccccc12)N1CCC(C(=O)N2CCCCC2)CC1	-15%	-22%
O=C(CCc1nc2ccccc2s1)NC1CCCCCC1	115%[activator]	4%[1.06 µM]
COc1cccc(NC(=O)c2sc(-n3nc(C)c(Cc4ccccc4Cl)c3C)nc2C)c1	-10%	-12%
Cc1ccc(C(=O)N2CCC(c3nc4cc(C(F)(F)F)ccc4s3)CC2)cn1	?	14µM*
COc1ccc(NCc2nc3scc(-c4cccs4)c3c(=O)[nH]2)cc1	0%	0%
COC(=O)[C@]12C[C@H](CC(=O)N3CCSCC3)C(=O)N(Cc3ccc(Cl)cc3Cl)C1=C[C@H](C(C)(C)C)O[C@@H]2C	?	?
CCOC(=O)C1=C(C)NC(=O)CC1C(=O)Nc1cc(Cl)cc(Cl)c1 (stereo not drawn)	35%[activator]	-5%
Cc1ccccc1C(=O)OC1CCN(C)CC1	7%	-6%
CCOC(=O)C(C)Oc1ccc2c(=O)c(Oc3cccc(C)c3)c(C(F)(F)F)oc2c1 (stereo not drawn)	1%	2%
O=C(NC1CCCc2ccccc21)c1ccc2ncsc2c1 (stereo not drawn)	31%[activator]	134%[activator]
CC(C)=CC(=O)Nc1ccc(Br)cc1F	108%[activator]	6%
O=C(CCc1c[nH]c2ccccc12)N1CCN(C(=O)C2CC2)CC1	9%	-9%
Cc1oc(-c2ccccc2)nc1CC(=O)Nc1ccc(O)c2ccccc12	8%	-17%
COc1ccc(C(=O)Nc2ccc3nc(SCC(=O)N4CCCc5ccccc54)sc3c2)cc1	-2%	-13%
Clc1ccccc1CNc1n[nH]c(-c2cccs2)n1	153%[activator]	24%
Cc1cccc(-n2c(Cc3cc(=O)[nH]c(=O)[nH]3)nnc2SCC(=O)c2ccccc2)c1	-6%	-8%
O=C(Nc1cccc(F)c1)c1n[nH]c(=O)c2ccccc12	60%[activator]	4%
Cc1cc(N2CCC(C(=O)Nc3ccc(F)cc3C)CC2)n2nc(C)c(-c3ccc(Cl)cc3)c2n1	-12%	-5%
CCOC(=O)CN1C(C(=O)c2ccccc2)=C(OC(=O)C(C)(C)C)c2ccccc2S1(=O)=O	12%	30%
CCC(=O)N1CCc2cc(S(=O)(=O)NCCC(=O)Nc3ccc(OC)c(Cl)c3)ccc21	-19%	-1%
O=C(/C=C/c1cccc(Br)c1)c1ccc(N2CCOCC2)cc1	68%[activator]	27%
Cc1ccc(-c2noc(-c3ccc(N4CCCCC4C)c([N+](=O)[O-])c3)n2)cc1 (stereo not drawn)	-27%	-10%
CCOc1ccc(Oc2ccc(NC(=O)Cn3ncc4ccccc4c3=O)cc2)cc1	22%	-10%
COc1ccc(CC(=O)NCC(c2ccc(N(C)C)cc2)N2CCOCC2)cc1 (stereo not drawn)	-10%	-4%
Cc1ccc(NC(=O)CC(C)n2ccnc2)cc1Cl (stereo not drawn)	5%	3%
CC(Oc1ccc(/C=C(/C#N)c2nc3ccccc3[nH]2)cc1)C(=O)O (stereo not drawn)	108%[activator]	44%[activator]
CC(=O)N(Cc1cc2cccc(C)c2[nH]c1=O)C(C)(C)C	-9%	-17%
Cc1ccc(S(=O)(=O)c2cn(CC(=O)Nc3cccc(C)c3)c3cc4c(cc3c2=O)OCO4)cc1	5%	24%
Cc1ccccc1NC(=O)CCC1CCCO1 (stereo not drawn)	0%	12%
CCn1cc2nc(SCc3cccc(OC)c3)n(Cc3ccc(Cl)cc3)c(=O)c2n1	-10%	-15%
COc1ccc(-c2nc3c(c(SCC(=O)N4CCCCC4)n2)Cc2cc(Cl)ccc2O3)cc1	2%	0%
CCn1c(=O)n(CC)c2cc(N3CCCCC3)c(NC(=O)Nc3cc(C)cc(C)c3)cc21	-7%	2%
O=C(Cn1c(=O)n(Cc2ccccc2)c(=O)c2sc3ccccc3c21)NCc1ccccc1Cl	-18%	4%
CC1CCc2nc3ccccc3c(C(=O)Nc3ccccc3F)c2C1 (stereo not drawn)	7%	0%
O=c1c2oc3ccccc3c2n(Cc2ccccc2)c(=O)n1Cc1ccc2c(c1)OCO2	-13%	-15%
N#CCSc1nnc(-c2c[nH]c3ccccc23)n1C1CC1	15%	1%
Cc1ccc2cc(C(=O)O)[nH]c2c1	0%	1%
COc1ccc(CCC(=O)OCC(=O)Nc2ccccc2OC(F)F)cc1OC	-2%	0%
Cc1cccc(C)c1OC(=O)c1ccc(C#N)cc1	0%	7%
CN1CCN(CCCNC(=O)c2nc3ccccc3c(=O)[nH]2)CC1	-5%	-5%
Cn1nnnc1SCCCNCc1cc(Br)ccc1OCc1ccccc1	-22%	-21%
Cc1cc(C)c(NC(=O)CN(C)S(=O)(=O)c2ccc3c(c2)CCC(=O)N3)c(C)c1	-18%	-8%
CC(C)=CCC/C(C)=N/n1cnnc1	6%	5%
COc1ccc(S(=O)(=O)NCCc2sc(-c3cccnc3)nc2C)cc1	26%	185%[activator]
Cc1cccc(C)c1OCC(=O)NCCc1nnc2ccccn12	-8%	-17%
CC(C)CC(=O)NCCc1ccsc1	18%	1%
CCn1nc(C(=O)N(Cc2ccc(OC)cc2)C(C)Cc2cccs2)c2ccccc2c1=O (stereo not drawn)	-10%	-5%
CCC(NC(=O)c1cccc(COC)c1)c1ccccc1OC(F)F (stereo not drawn)	-3%	-6%

Full records as entered above. Order of screens: 2A firefly	StopGo RLuc
COc1ccc(CCC(=O)OCC(=O)Nc2ccccc2OC(F)F)cc1OC is listed with -2%	0%
Cc1cccc(C)c1OCC(=O)NCCc1nnc2ccccn12 is listed with -8%	-17%
Cc1cc(C)c(NC(=O)CN(C)S(=O)(=O)c2ccc3c(c2)CCC(=O)N3)c(C)c1 is listed with -18%	-8%
CCC(NC(=O)c1cccc(COC)c1)c1ccccc1OC(F)F (stereo not drawn) is listed with -3%	-6%

Next part
molecule	2A firefly	StopGo RLuc
COc1ccc(OCC2c3cc(OC)c(OC)cc3CCN2C(=O)c2c(F)cccc2F)cc1 (stereo not drawn)	-13%	31%[activator]
O=C(CCc1ccccc1)Nc1ccc(Cc2ccncc2)cc1	62%[activator]	43%[activator]
COc1cccc(C(=O)Nc2cccc(C(=O)OCc3cc(=O)n4c5c(sc4n3)CCCC5)c2)c1	-14%	-9%
O=C(Nc1ccc(F)cc1)C1Sc2nnc(-c3ccccc3)n2NC12CCCCC2 (stereo not drawn)	?	?
Cn1cc(C(=O)NCCNC(=O)c2cccs2)c2ccccc21	11%	7%
C=CCn1c(NCCOC)nc2c1c(=O)n(C)c(=O)n2C	-3%	-8%
CCNC(=O)C1CCCN(S(=O)(=O)c2c(C)nn(CC(=O)N3CCc4ccccc43)c2C)C1 (stereo not drawn)	-4%	-4%
CCS(=O)(=O)N1CC(=O)N(c2ccccc2C)C(C)(C(=O)NC2CCCCC2)C1 (stereo not drawn)	-6%	-10%
O=C(CN1C(=O)CCn2nc(-c3ccccc3)cc21)NCc1ccc(Cl)cc1	16%	0%
CCn1ccnc1CC1COc2ccccc2O1 (stereo not drawn)	12%	-2%
Cc1c(Cl)cccc1NC(=O)Cn1cc(C(=O)c2cccs2)c2ccccc21	7.1µM*	-4%
CNS(=O)(=O)c1cc(C(=O)NCC2(c3ccccc3)CC2)cc(C)c1C	-4%	89%[activator]
Cc1ccc(NC(=O)CN2C(=O)CC(c3ccco3)Sc3ccccc32)cc1Cl (stereo not drawn)	-5%	-5%
O=C(Cn1c(=O)oc2cc(S(=O)(=O)NCc3ccccc3)ccc21)Nc1cccc(F)c1	3%	185%[activator]
CC(=O)c1cc(C(C)(C)C)c(O)c(C(C)(C)C)c1	-2%	2%
CC(NC(=O)c1ccoc1)C(=O)Nc1cccnc1N1CCCCC1 (stereo not drawn)	7%	3%
O=C(CS(=O)(=O)c1ccccc1)c1ccc(Br)cc1	0%	69%[activator]
CCOC(=O)c1cc2c(=O)n3ccccc3nc2n(C)c1=NC(=O)c1c(-c2c(F)cccc2Cl)noc1C	33%[activator]	35%
CCC(Sc1ncc(S(=O)(=O)c2ccc(Cl)cc2)c(=O)[nH]1)C(=O)Nc1ccc(OC)cc1 (stereo not drawn)	2%	-3%
O=C(CN1C(=O)CCc2cc(S(=O)(=O)N3CCOCC3)ccc21)NCc1ccc(F)cc1	16%	9%
Cc1ccc(C(=O)Nc2ccc(C(C)C)cc2)cc1Cl	154%[activator]	-6%
COc1ccc(C(=O)c2sc(Nc3ccc(F)cc3)nc2N)cc1	50%[activator]	10%
CC(=O)[C@]1(O)Cc2c(O)c3c(c(O)c2[C@@H](O[C@H]2C[C@H](N)[C@H](O)[C@H](C)O2)C1)C(=O)c1ccccc1C3=O	-5%[11.5 µM]	?
CN(C)c1ncccc1CNC(=O)C1CCCN(S(C)(=O)=O)C1 (stereo not drawn)	-6%	-18%
CC(C)c1ccc(NC(=O)C2CC(=O)Nc3nc(N4CCOCC4)nc(N)c32)cc1 (stereo not drawn)	1%	-18%
COc1ccc(S(=O)(=O)N(CC(=O)Nc2ccc(F)c(Cl)c2)c2ccc(C)cc2)cc1OC	2%	55%[activator]
O=C(c1ccccc1)c1c(-c2ccccc2)cc2ccccn12	0%	61%[activator]
CCc1nnc(SCc2cc(C)ccc2C)c2cc3sc(C)cc3n12	-17%	-8%
CN1CCN(S(=O)(=O)c2ccc(Sc3ccc4ccccc4c3)nc2)CC1	-3%	-1%
Cc1cc(C)c(S(=O)(=O)Nc2ccc3oc4c(c3c2)C(=O)CC(C)(C)C4)cc1C	-5%	-13%
CC1CCC(NC(=O)C2CC(=O)Nc3cc(F)ccc32)CC1 (stereo not drawn)	0%	-4%
Cc1cccc(C)c1Nc1nn2c(=O)c3cc4c(cc3nc2s1)OCO4	-15%	-7%
Fc1ccccc1-c1ccc(CNCC2CCNCC2)o1	-8%	-28%
O=C(CCC(=O)c1ccc(Cl)cc1)OCC(=O)c1ccccc1Br	-3%	-7%
CCN(CC)C(=S)SC(C)C(=O)Nc1cccc(C#N)c1 (stereo not drawn)	13%	7%
CN1CCN(CCCN2C(=O)c3ccccc3C2C(=O)NC2CCCCC2)CC1 (stereo not drawn)	-6%	-11%
CCOCCC(=O)NCc1ccc(OC)cc1	17%	-4%
CCOc1ccc(S(=O)(=O)N2CCN(Cc3ncc(-c4ccccc4)o3)CC2)cc1	-23%	?
Cn1nc(C(=O)OCc2nc(-c3ccc4c(c3)OCO4)no2)c2ccccc21	22%	1%
COc1ccc(C2CC(=O)N(Cc3ccc(F)cc3)c3ccccc3S2)cc1OC (stereo not drawn)	3%	4%
Cc1cccc(CSc2ncccc2C(=O)O)c1	22%	-1%
Cc1ccc(C)n1-c1c(C(=O)NCCN(C)C2CCCCC2)sc2ncccc12	4%	8%
COc1ccc2[nH]cc(CCNC(=O)Nc3ccccc3)c2c1	8%	10%
Cc1ccc(CN(Cc2ccco2)C(=O)c2ccc(Cl)cc2Cl)cc1	6%	17%
C=CCSc1nc2c(c(=O)[nH]c(=O)n2C)n1C(C)C	-11%	-9%
CCC(=O)N1CCc2cc(Br)cc(S(=O)(=O)CCC(=O)N3CCN(c4cccc(C)c4)C(C)C3)c21 (stereo not drawn)	-18%	61%[activator]
CC(C)NS(=O)(=O)c1ccc(Cl)c(C(=O)NCc2ccc(-c3nc4ccccc4s3)o2)c1	?	14µM*
COc1ccccc1CN(Cc1ccco1)c1cnc(S(C)(=O)=O)nc1C(=O)Nc1cc(C)ccc1C	-10%	-4%

In a second layout: 2 of the compounds above
smiles: CCn1cc2nc(SCc3cccc(OC)c3)n(Cc3ccc(Cl)cc3)c(=O)c2n1
- 2A firefly = -10%
- StopGo RLuc = -15%

smiles: COc1cccc(C(=O)Nc2cccc(C(=O)OCc3cc(=O)n4c5c(sc4n3)CCCC5)c2)c1
- 2A firefly = -14%
- StopGo RLuc = -9%

More records.
molecule	2A firefly	StopGo RLuc
COc1ccc2c(C)cc(SCC(=O)N(C)Cc3ccccc3)nc2c1	-4%	90%[activator]
NC(=O)C(Sc1ccccc1)c1ccccc1 (stereo not drawn)	-11%	5%
Cc1c(C#N)c(NC(=O)CSc2nnnn2C2CCCC2)n(CC2CCCO2)c1C (stereo not drawn)	-9%	16%
CCCN(Cc1ccc(C)cc1)C(=O)CSc1nnc(COc2ccccc2Cl)n1C	-4%	16%
COc1cc(-c2noc(-c3ccc(NC4CCCCC4)c([N+](=O)[O-])c3)n2)cc(OC)c1OC	-17%	-13%
CCN(CCCNC(=O)CN1N=C(c2ccccc2)CCC1=O)c1cccc(C)c1	-12%	-11%
COc1cccc(CNC(=O)Cc2c(C)nc3ccccc3c2C)c1	?	?
CC(Nc1nc2c(c(=O)n(C)c(=O)n2C)n1Cc1ccccc1Cl)c1ccccc1 (stereo not drawn)	0%	-5%
Cc1nc2cc(NS(=O)(=O)c3c(C)c(C)cc(C)c3C)ccc2s1	?	35%[activator]
